High-throughput results: PubChem BioAssay, ICCB-Longwood Screening Facility, Harvard Medical School
PV pol inh: poliovirus RdRp elongation inhibitors, primary screen, biochemical, fluorescence polarization, total intensity. poliovirus polymerase elongation; hits give low values. Genome polyprotein (Poliovirus type 1 (strain Mahoney)), P03300. 150,000 tested, 0.66% active. % elongation, % (compound at 16.7 µg/mL); in the data active means % elongation below about 90%; further: some results filed as inactive read as strong as hits
Target sequence (P03300 1749-2209 limits assumed): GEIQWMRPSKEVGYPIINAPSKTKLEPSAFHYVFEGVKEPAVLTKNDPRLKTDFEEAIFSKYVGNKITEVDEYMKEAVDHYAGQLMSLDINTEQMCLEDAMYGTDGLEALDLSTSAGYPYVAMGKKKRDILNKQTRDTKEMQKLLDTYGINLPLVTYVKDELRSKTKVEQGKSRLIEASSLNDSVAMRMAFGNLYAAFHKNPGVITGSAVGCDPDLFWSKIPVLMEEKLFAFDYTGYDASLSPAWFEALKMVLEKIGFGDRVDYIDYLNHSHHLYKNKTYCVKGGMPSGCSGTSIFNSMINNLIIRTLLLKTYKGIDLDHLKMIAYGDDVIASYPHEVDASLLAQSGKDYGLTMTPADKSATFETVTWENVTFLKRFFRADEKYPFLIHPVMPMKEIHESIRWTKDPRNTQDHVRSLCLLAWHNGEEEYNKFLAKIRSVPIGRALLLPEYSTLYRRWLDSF
Mtb MenB inh: M. tuberculosis MenB inhibitors, primary screen, biochemical, absorbance. 1,4-dihydroxy-2-naphthoyl-CoA synthase (Mycobacterium tuberculosis (strain ATCC 25618 / …. MenB enzyme assay, absorbance read-out; some hits fall short of the stated cut. inhibition, %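 (about 12 µg/mL by stock and volumes)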. 100,000 tested, 0.43% active. AID 540299, 2011;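 active means mean of two replicates above 30%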;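 further: 0% = no compound and 100% = wells with inactive enzyme; the first replicate is given; strong numbers were not always called active; inactives centre near -10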
Mtb MbtI inh: MbtI salicylate synthase inhibitors, primary screen, biochemical, fluorescence intensity; inhibition, %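 (about 17 µg/mL by stock and volumes)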; 100,000 tested, 0.89% active; P9WFX0; AID 493033, 2011; purified MbtI enzyme, fluorescence intensity read-out;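 active means above 50% in both replicates, above 80% if mildly self-fluorescent; inactive means the rest, strongly fluorescent compounds included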;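 further: 0% = mean of negative and 100% = mean of positive controls; one replicate is shown; some compounds called inactive have numbers as strong as hits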
Target sequence (P9WFX0 whole entry, looked up): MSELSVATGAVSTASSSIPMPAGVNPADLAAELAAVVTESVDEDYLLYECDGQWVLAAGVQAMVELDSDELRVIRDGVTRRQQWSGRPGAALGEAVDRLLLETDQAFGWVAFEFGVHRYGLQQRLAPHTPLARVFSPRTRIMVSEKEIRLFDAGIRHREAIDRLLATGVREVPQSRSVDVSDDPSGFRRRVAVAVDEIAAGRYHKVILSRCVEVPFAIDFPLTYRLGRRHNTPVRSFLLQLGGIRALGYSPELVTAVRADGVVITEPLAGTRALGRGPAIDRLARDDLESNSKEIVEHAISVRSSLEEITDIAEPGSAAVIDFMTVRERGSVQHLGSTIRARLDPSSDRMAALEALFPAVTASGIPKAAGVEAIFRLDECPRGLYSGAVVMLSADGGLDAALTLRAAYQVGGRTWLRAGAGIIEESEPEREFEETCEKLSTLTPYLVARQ
PV pol inh intensity: further read-out of PV pol inh, marked with its call; % elongation; measured here: total intensity read-out; formula for this scale not given here;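 total fluorescence in place of polarization; lower means less elongation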
Starred values were filed as active, the others as inactive; x = no result given; & = joins results of further samples.

1	CCn1c2ccccc2c(=O)c2c1nnn1c3ccccc3nc21
2	c1cncc(-c2nc3c4c5c(sc4ncn3n2)CCCC5)c1
3	Oc1ccc(C(Nc2cccnc2)Sc2ccc(Cl)cc2)cc1 (configuration not stated)
4	CCc1ccc(C(=O)COC(=O)c2cnc(C)cn2)cc1
5	CC1CN(C(=O)C(C)NS(=O)(=O)c2cccc(Cl)c2)CC(C)O1 (configuration not stated)
6	CCCCCN=C(N)N/N=C/c1c[nH]c2ccc(OC)cc12
assay / compound | 1 | 2 | 3 | 4 | 5 | 6
PV pol inh intensity | 92 | 107 | 92 | 100 | 103 | 101&103
PV pol inh | 101 | 102 | 103 | 102 | 101 | 101&100
Mtb MenB inh | 7 | -5 | -6 | 2 | -3 | -20&1
Mtb MbtI inh | 5 | -7 | x | 6 | -4 | -7&-18

7	CCOC(=O)C1=CN(C(C)C)C=C(C(=O)OCC)C1c1ccccc1Br
8	O/N=C1/c2ccccc2/C(=N/O)C1c1ccc(Cl)cc1
9	Cc1[nH]c(=O)c(C#N)c2c1CCCC2
10	CCCNC1=CC(=O)C(NCCC)=CC1=O
11	CC(=O)NC(C)c1nc2ccccc2n1CC(=O)Nc1ccc(C(C)C)cc1 (configuration not stated)
12	COc1ccc2c(c1)oc(=O)c1ccccc12
assay / compound | 7 | 8 | 9 | 10 | 11 | 12
PV pol inh intensity | 96 | 102 | 98 | 102 | 108 | 105
PV pol inh | 101 | 102 | 106 | 102 | 103 | 103
Mtb MenB inh | -49 | -2 | -22 | -19 | x | x
Mtb MbtI inh | 1 | -5 | -103 | 12 | -5 | 28

13	CC1(C)S[C@@H]2[C@H](NC(=O)[C@H](NC(=O)N3CCNC3=O)c3ccccc3)C(=O)N2C1C(=O)O (some centres not stated)
14	C=CCN1C(=O)/C(=c2\sc3nc(-c4cc(OC)c(OC)c(OC)c4)nn3c2=O)c2ccccc21
15	CCNCC(=O)Nc1ccc(NC(C)=O)cc1
16	CC1CCN(CC(=O)O)CC1
17	O=C1CSc2cc(S(=O)(=O)N3CC=C(c4ccccc4)CC3)ccc2N1
18	Cc1cccc(NC(=O)c2cccc3c2C(=O)N(CC2CCCO2)C3)c1C (configuration not stated)
assay / compound | 13 | 14 | 15 | 16 | 17 | 18
PV pol inh intensity | 99&104 | 103 | 106 | 103 | 107 | 101
PV pol inh | 100&99 | 101 | 102 | 100 | 99 | 99
Mtb MenB inh | -5&3 | 3 | 5 | 18 | -16 | -33
Mtb MbtI inh | -11&-21 | 1 | 6 | -4 | -2 | 3

19	CC(CNS(=O)(=O)c1ccc(-c2ccc(=O)[nH]n2)o1)c1ccccc1 (configuration not stated)
20	S=C1NCN(Cc2ccccc2)CN1c1ccccc1
21	O=C1COc2cc(S(=O)(=O)CCC(=O)N3CCc4ccccc43)ccc2N1
22	CC(NC(=O)Cc1c[nH]c2ccccc12)C(=O)O (configuration not stated)
23	O=C(COC(=O)C1CCN(c2ccc(C(F)(F)F)cn2)CC1)Nc1ccc(C(F)(F)F)cc1
24	N#CCCN(Cc1cccs1)S(=O)(=O)c1ccc(-c2ccccn2)s1
assay / compound | 19 | 20 | 21 | 22 | 23 | 24
PV pol inh intensity | 102 | 101 | 106 | 95 | 111 | 101
PV pol inh | 102 | 102 | 101 | 98 | 106 | 104
Mtb MenB inh | 10 | 4 | -3 | 0 | -6 | -14
Mtb MbtI inh | 127 | -8 | -16 | x | -23 | 9

25	Cc1ccc(S(=O)(=O)Nc2nc3ccccc3nc2NCc2ccco2)cc1C
26	CC(=O)N1C(C(=O)O)Cc2c([nH]c3ccccc23)C1(C)C (configuration not stated)
27	C[N+](C)(C)CCCCCCCCCC[N+](C)(C)C
28	CCN(CC)c1ccc(/C=c2\sc3nc(-c4ccco4)nn3c2=O)cc1
29	O=C(Nc1nc2ccccc2[nH]1)c1cccc(S(=O)(=O)N2CCCC2)c1
30	OCc1nc2ccccc2n1C/C=C/c1ccccc1
assay / compound | 25 | 26 | 27 | 28 | 29 | 30
PV pol inh intensity | x | 112 | 104 | 200 | 109 | 106
PV pol inh | x | 105 | 98 | 71 | 103 | 99
Mtb MenB inh | -27 | -4 | 11 | 1 | -29 | -20
Mtb MbtI inh | -18 | x | -3 | -2 | 4 | x

31	Cc1cc(C)n(C2=NCCN2S(=O)(=O)c2cc(C(F)(F)F)cc(C(F)(F)F)c2)n1
32	O=C1NCCCC1C(=O)N1CCc2ccccc21 (configuration not stated)
33	NC(=O)CSc1ccc(F)cc1
34	COc1cc(Cl)c(C)cc1NC(=O)C1CSC2(C)CCC(=O)N12 (configuration not stated)
35	CS(=O)(=O)NCC(c1cccs1)N1CCc2ccccc21 (configuration not stated)
36	Cc1ccc(Sc2c(O)c3ccccc3oc2=O)cc1
assay / compound | 31 | 32 | 33 | 34 | 35 | 36
PV pol inh intensity | 108 | 100 | 104 | 94 | 107 | 95
PV pol inh | 108 | 102 | 100 | 99 | 104 | 101
Mtb MenB inh | -69 | 0 | x | -28 | -17 | x
Mtb MbtI inh | -11 | -9 | 1 | -3 | -2 | -8

37	Cc1cc(=O)oc2cc(NC(=O)CC(CC(=O)O)c3ccccc3)ccc12 (configuration not stated)
38	Nc1ccccc1S(=O)(=O)Nc1ccccc1
39	CN1CCC(OC(=O)c2ccco2)CC1
40	CC1(C)Cc2c(ccc3ccccc23)CN1
41	Cc1ccc(N=C2NC(=O)/C(=C\c3cn(C)c4ccccc34)S2)c(C)c1
42	COc1ccccc1N1CCN(S(=O)(=O)c2ccc3c4c(cccc24)C(=O)N3)CC1
assay / compound | 37 | 38 | 39 | 40 | 41 | 42
PV pol inh intensity | 118 | 108 | 102 | 102 | 104 | 104
PV pol inh | 112 | 105 | 100 | 101 | 102 | 101
Mtb MenB inh | -7 | 3 | -16 | 1 | -49 | -45
Mtb MbtI inh | 92 | 12 | -3 | 7 | -6 | -3

43	CC1=C(C(=O)OCc2ccccc2)C(c2ccc[nH]2)C(C#N)=C(S)S1 (configuration not stated)
44	Cc1ccc(-c2nc(Cn3cc(C=C4C(=O)N(C)C(=O)N(C)C4=O)c4ccccc43)no2)cc1
45	CC(C)=CC(=O)Nc1nc2ccc(S(C)(=O)=O)cc2s1
46	COc1cc2c(cc1OC)C(c1ccccc1)N(C(=O)c1oc3ccccc3c1C)CC2 (configuration not stated)
47	O=C(O)c1ccc2c(c1)C(=O)N(NC(=O)c1ccc(O)cc1)C2=O
48	O=C(O)CCC(=O)N1CCCC1
assay / compound | 43 | 44 | 45 | 46 | 47 | 48
PV pol inh intensity | 114 | 97 | 102 | 99 | 102 | 109
PV pol inh | 110 | 99 | 100 | 104 | 100 | 105
Mtb MenB inh | -50 | 1 | -11 | -12 | 9 | -21
Mtb MbtI inh | x | -5 | -25 | 9 | 7 | 3

49	CCn1c(SC)nnc1C1CCN(C(=O)NCc2ccccc2)CC1
50	Cc1ccc(OCCOCCOc2ccccc2/C=N\n2cnnc2)cc1
51	CC(C)OC(=O)/C(C#N)=C/c1cn(C)c2ccccc12
52	O=S(=O)(c1ccc2oc(=S)n(CN3CCOCC3)c2c1)N1CCOCC1
53	N#CCN(C(=O)CSc1nccn1-c1cccc(Cl)c1)c1ccccc1
54	CCOC(=O)c1c(S(=O)(=O)NC2CCN(C(=O)OCC)CC2)c(C)n(C)c1C
assay / compound | 49 | 50 | 51 | 52 | 53 | 54
PV pol inh intensity | 100 | 107 | 97 | 66* | 109 | 93
PV pol inh | 105 | 102 | 100 | 62* | 106 | 102
Mtb MenB inh | -44 | 3 | -57 | -2 | -11 | 13
Mtb MbtI inh | -7 | -1 | -6 | 77 | -4 | 15

55	CCN1CCN(CCCNC(=O)c2ccc3nc(/C=C(\O)c4ccc(OC)cc4)c(=O)[nH]c3c2)CC1
56	CCCNC(=O)N(C)c1ncnnc1NC
57	CC1CC2(CCCCC2)Nc2ccccc21 (configuration not stated)
58	CC1(C)Cc2cccc(C(=O)Nc3cccc4c3CCCC4)c2O1
59	Cc1cccc(C(=O)NCCCn2ccnc2)c1C
60	COc1ccc(Cl)cc1C(=O)Nc1ccc2nc3n(c(=O)c2c1)CCCC3
assay / compound | 55 | 56 | 57 | 58 | 59 | 60
PV pol inh intensity | 105 | 105 | 99 | 100 | 107 | 95
PV pol inh | 117 | 100 | 104 | 103 | 111 | 104
Mtb MenB inh | -97 | 29* | -18 | -18 | -26 | -24
Mtb MbtI inh | 10 | -4 | -2 | -2 | -4 | 27

61	CCOC(=O)CN1C(=O)C(C)(C)Oc2ccc(C(=O)NC(C)C)cc21
62	CCOc1cc(/C=C2\NC(=S)N(C3CCCCC3)C2=O)ccc1O
63	COc1ccccc1NC(=O)Cc1ccccc1
64	N#CCC(=O)NCCN1CCOCC1
65	COc1ccc(S(=O)(=O)Nc2ccccn2)cc1OC
66	CC(C)NC(=O)NC(c1ccccc1)c1ccccc1
assay / compound | 61 | 62 | 63 | 64 | 65 | 66
PV pol inh intensity | 102 | 110 | 103 | 105 | 99 | 95
PV pol inh | 103 | 110 | 100 | 104 | 100 | 104
Mtb MenB inh | 12 | -154 | 20 | x | 12 | -16
Mtb MbtI inh | -1 | 13 | 7 | -7 | 15 | -6

67	COc1ccccc1NS(=O)(=O)c1cccc(C(=O)NN=C2CCCC2)c1
68	Cc1cc(C)n(CCc2nc(-c3cccs3)cs2)n1
69	CN(Cc1ccccc1)Cn1c(CO)nc2ccccc21
70	O=c1[nH]c(SC2Cc3ccccc3C2O)nc2c1cnn2-c1ccccc1 (configuration not stated)
71	Cc1cc2c3cccn3ccn2c1
72	C=CCn1c2ccccc2c2nnc(SCC(=O)Nc3nnc(C(C)C)s3)nc21
assay / compound | 67 | 68 | 69 | 70 | 71 | 72
PV pol inh intensity | 101 | 104 | 107 | 109 | 221 | 101
PV pol inh | 103 | 101 | 108 | 102 | 97 | 103
Mtb MenB inh | -41 | x | -19 | -4 | -14 | -28
Mtb MbtI inh | -5 | 11 | -14 | -1 | -6 | -5

73	COC(=O)c1sccc1S(=O)(=O)N1c2ccccc2NC(=O)CC1C (configuration not stated)
74	Cc1ccc(S(=O)(=O)N2CCN(C(=O)C3CCCN3C(=O)OC(C)(C)C)CC2)c(C)c1 (configuration not stated)
75	O=C(Cc1ccccc1)Nc1cccc(C(=O)OCC(=O)c2ccc(Cl)cc2)c1
76	Cc1cc(C)c2c(=O)[nH]n(C(C)C)c2n1
77	C=CCn1c(=N)n(CC(O)c2ccc(C)cc2)c2ccccc21 (configuration not stated)
78	COc1ccc(C(=O)N2CC(C)OC(C)C2)cc1 (configuration not stated)
79	COc1ccc(Br)cc1CO
80	CC(C)(C)c1ccc(OCCCn2ccnc2)cc1
81	Cc1cccn2c(=O)c(/C=N/NC(=O)c3ccncc3)c(N3CCCC3)nc12
assay / compound | 73 | 74 | 75 | 76 | 77 | 78 | 79 | 80 | 81
PV pol inh intensity | 98 | 107 | 104 | 104 | 101 | 108 | 105 | 98 | 108
PV pol inh | 97 | 103 | 102 | 105 | 102 | 104 | 101 | 101 | 103
Mtb MenB inh | 16 | -3 | -15 | 7 | -2 | 10 | -2 | 3 | -57
Mtb MbtI inh | 6 | -8 | x | x | -4 | x | 0 | 5 | 8

Of the compounds above, these contain an NH in an aromatic ring.
6	CCCCCN=C(N)N/N=C/c1c[nH]c2ccc(OC)cc12
9	Cc1[nH]c(=O)c(C#N)c2c1CCCC2
19	CC(CNS(=O)(=O)c1ccc(-c2ccc(=O)[nH]n2)o1)c1ccccc1 (configuration not stated)
22	CC(NC(=O)Cc1c[nH]c2ccccc12)C(=O)O (configuration not stated)
26	CC(=O)N1C(C(=O)O)Cc2c([nH]c3ccccc23)C1(C)C (configuration not stated)
29	O=C(Nc1nc2ccccc2[nH]1)c1cccc(S(=O)(=O)N2CCCC2)c1
43	CC1=C(C(=O)OCc2ccccc2)C(c2ccc[nH]2)C(C#N)=C(S)S1 (configuration not stated)
55	CCN1CCN(CCCNC(=O)c2ccc3nc(/C=C(\O)c4ccc(OC)cc4)c(=O)[nH]c3c2)CC1
assay / compound | 6 | 9 | 19 | 22 | 26 | 29 | 43 | 55
PV pol inh intensity | 101&103 | 98 | 102 | 95 | 112 | 109 | 114 | 105
PV pol inh | 101&100 | 106 | 102 | 98 | 105 | 103 | 110 | 117
Mtb MenB inh | -20&1 | -22 | 10 | 0 | -4 | -29 | -50 | -97
Mtb MbtI inh | -7&-18 | -103 | 127 | x | x | 4 | x | 10

70	O=c1[nH]c(SC2Cc3ccccc3C2O)nc2c1cnn2-c1ccccc1 (configuration not stated)
76	Cc1cc(C)c2c(=O)[nH]n(C(C)C)c2n1
assay / compound | 70 | 76
PV pol inh intensity | 109 | 104
PV pol inh | 102 | 105
Mtb MenB inh | -4 | 7
Mtb MbtI inh | -1 | x
